# Screens: PubChem BioAssay, National Center for Advancing Translational Sciences (NCATS)
# StopGo RLuc – FMDV 2A StopGo reporter, Renilla signal. HEK cells with a luciferase reporter of 2A StopGo recoding. Potency, µM (top dose mostly 57.5 µM), without a hit: top-dose signal change, negative = less light. hit rate 0.32% among 120,000; active means well fitted falling curve with a large enough effect; inconclusive means small, poorly fitted or top-dose-only effect; inactive means no such curve, though single readings can be large or run the other way; further: nearly all actives have a fitted effect of over 55% in size; overnight with compound
# 2A firefly – lowers the firefly signal of an FMDV 2A StopGo reporter; AID 1745856; hit rate 0.23% among 120,000; HEK cells with a luciferase reporter of 2A StopGo recoding; Potency, µM (top dose mostly 57.5 µM), inactives show at the highest dose signal change, negative = less light; active = well fitted falling curve with a large enough effect; inconclusive = small, poorly fitted or top-dose-only effect; inactive = no such curve, though single readings can be large or run the other way; further: nearly all actives have a fitted effect of over 60% in size; overnight with compound
# Starred values were filed as active, the others as inactive; ? = inconclusive; [ ] = remark or other dose. On the % scale 0 is the no-effect control and ±100 the full control effect; potency means the concentration at half of the fitted maximal effect. A portion of the library; the hit share may differ from the screen's.
# Preview:
(1) Cc1[nH]c2ccccc2c1C(=O)C(=O)NC(C)c1ccccc1 (stereo unspecified)
(2) Cc1ccc(-c2nnc(SCC(=O)Nc3cc(C)on3)n2C2CC2)cc1
(3) CC(NC(=S)NNC(=O)c1ccco1)c1ccccc1 (stereo unspecified)
(4) CN1C(C(=O)Nc2cccc(O)c2)=CC(c2ccco2)=NS1(=O)=O
(5) O=C(Cn1c(=O)c2c(ncn2C2CCCC2)n(Cc2ccccc2)c1=O)N1CCc2ccccc21
(6) Cc1ccccc1NC(=O)CSc1c(C(C)C)cnc2c1c(=O)n(C)c(=O)n2C
(7) O=C(COC(=O)CCCC1=NS(=O)(=O)c2ccccc2N1)Nc1ccc(Br)cc1
screen / no. | 1 | 2 | 3 | 4 | 5 | 6 | 7
StopGo RLuc | 50.1%[activator] | 7.8% | -11.1%[1.06 µM] | -13.0% | -11.5% | -20.3% | -4.2%
2A firefly | 24.0% | -0.2% | 3.0% | -11.8% | -13.0% | 0.7% | -12.1%

(8) CCOc1cccc2cc(-c3nc4sc(C(=O)Nc5ccc(C)cc5)c(C)c4c(=O)[nH]3)c(=O)oc12
(9) O=C(Nc1ccc2c(c1)CCC2)c1cc2ncccn2n1
(10) CC(C)Oc1ccc(CNC(=O)c2cnc3sc(N4CCCC4)nn3c2=O)cc1
(11) Cc1ccc(C(=O)C(C)OC(=O)c2ccc(S(=O)(=O)N(C)C)cc2)cc1C (stereo unspecified)
(12) CCN1c2ccccc2-c2nc(SCC(=O)NCc3ccccc3)ncc2S1(=O)=O
(13) Cc1ccc(NC(=O)N2CCN(c3nnc(C)c4c(C)n(-c5ccc(Cl)cc5)nc34)CC2)c(C)c1
(14) COc1ccc2c(COC(=O)CNC(=O)c3ccc(C)c(C)c3)cc(=O)oc2c1
screen / no. | 8 | 9 | 10 | 11 | 12 | 13 | 14
StopGo RLuc | 7.3% | -5.8% | -8.5% | -12.8% | -14.3% | -12.2% | -6.2%
2A firefly | 12.1% | 96.2%[activator] | -9.3% | -5.7% | -19.9% | -8.1% | -1.1%

(15) COc1ccc(NC(=O)Cn2nc(-c3ccc(C)cc3)c3ccccc3c2=O)cc1
(16) CCCn1cc(S(=O)(=O)c2ccc(C)cc2)c(=O)c2cc(OC)c(OC)cc21
(17) CN(CC(=O)OCc1coc(-c2cccs2)n1)S(=O)(=O)c1ccc(Cl)cc1
screen / no. | 15 | 16 | 17
StopGo RLuc | -6.5% | 50.7%[activator] | 5.9%
2A firefly | 3.7% | 1.1% | 0.0%

# The list itself, from the start:
(1) Cc1[nH]c2ccccc2c1C(=O)C(=O)NC(C)c1ccccc1 (stereo unspecified)
(2) Cc1ccc(-c2nnc(SCC(=O)Nc3cc(C)on3)n2C2CC2)cc1
(3) CC(NC(=S)NNC(=O)c1ccco1)c1ccccc1 (stereo unspecified)
(4) CN1C(C(=O)Nc2cccc(O)c2)=CC(c2ccco2)=NS1(=O)=O
(5) O=C(Cn1c(=O)c2c(ncn2C2CCCC2)n(Cc2ccccc2)c1=O)N1CCc2ccccc21
screen / no. | 1 | 2 | 3 | 4 | 5
StopGo RLuc | 50.1%[activator] | 7.8% | -11.1%[1.06 µM] | -13.0% | -11.5%
2A firefly | 24.0% | -0.2% | 3.0% | -11.8% | -13.0%

(6) Cc1ccccc1NC(=O)CSc1c(C(C)C)cnc2c1c(=O)n(C)c(=O)n2C
(7) O=C(COC(=O)CCCC1=NS(=O)(=O)c2ccccc2N1)Nc1ccc(Br)cc1
(8) CCOc1cccc2cc(-c3nc4sc(C(=O)Nc5ccc(C)cc5)c(C)c4c(=O)[nH]3)c(=O)oc12
(9) O=C(Nc1ccc2c(c1)CCC2)c1cc2ncccn2n1
(10) CC(C)Oc1ccc(CNC(=O)c2cnc3sc(N4CCCC4)nn3c2=O)cc1
screen / no. | 6 | 7 | 8 | 9 | 10
StopGo RLuc | -20.3% | -4.2% | 7.3% | -5.8% | -8.5%
2A firefly | 0.7% | -12.1% | 12.1% | 96.2%[activator] | -9.3%

(11) Cc1ccc(C(=O)C(C)OC(=O)c2ccc(S(=O)(=O)N(C)C)cc2)cc1C (stereo unspecified)
(12) CCN1c2ccccc2-c2nc(SCC(=O)NCc3ccccc3)ncc2S1(=O)=O
(13) Cc1ccc(NC(=O)N2CCN(c3nnc(C)c4c(C)n(-c5ccc(Cl)cc5)nc34)CC2)c(C)c1
(14) COc1ccc2c(COC(=O)CNC(=O)c3ccc(C)c(C)c3)cc(=O)oc2c1
(15) COc1ccc(NC(=O)Cn2nc(-c3ccc(C)cc3)c3ccccc3c2=O)cc1
screen / no. | 11 | 12 | 13 | 14 | 15
StopGo RLuc | -12.8% | -14.3% | -12.2% | -6.2% | -6.5%
2A firefly | -5.7% | -19.9% | -8.1% | -1.1% | 3.7%

(16) CCCn1cc(S(=O)(=O)c2ccc(C)cc2)c(=O)c2cc(OC)c(OC)cc21
(17) CN(CC(=O)OCc1coc(-c2cccs2)n1)S(=O)(=O)c1ccc(Cl)cc1
(18) O=C(CSc1nc(=O)[nH]c2c1CCCC2)Nc1ccc(Cl)c(Cl)c1
(19) CC(CCc1ccco1)NC(=O)C1CCN(c2ccc3nnc(C(F)(F)F)n3n2)CC1 (stereo unspecified)
(20) O=S(=O)(Nc1ccc(Br)cc1F)c1ccc(-c2cnc(C3CC3)o2)cc1
screen / no. | 16 | 17 | 18 | 19 | 20
StopGo RLuc | 50.7%[activator] | 5.9% | -14.2% | 15.9% | 158.7%[activator]
2A firefly | 1.1% | 0.0% | -15.6% | 19.1% | 36.9%[activator]

(21) CC(C)(C)NC(=O)NC(=O)CSc1nc(-c2ccccc2)c(-c2ccccc2)o1
(22) C#CCCN1CCN(C(=O)CCc2ncc(-c3ccc(C)cc3)o2)CC1
(23) COC(=O)CNC(=O)c1cc(-c2ccccc2Cl)nc2ccc(Br)cc12
(24) Cc1nc(N2CCCC2)c2c(C(=O)Nc3cccc(Cl)c3C)c(C)oc2n1
(25) CSCC[C@H](NC(=O)OC(C)(C)C)c1nnc(SC)o1
screen / no. | 21 | 22 | 23 | 24 | 25
StopGo RLuc | 13.5% | -7.4% | 9.0% | -1.5% | -6.9%
2A firefly | 25.4% | 31.9%[activator] | 8.1% | -21.2% | -0.4%

(26) CCCn1cnc2cc(NC(=O)c3cc(OC)c(OC)c(OC)c3)ccc21
(27) CCOC(=O)c1c(C)[nH]c(C)c1S(=O)(=O)N1CCC(C(=O)N2CCN(c3cc(C)ccc3C)CC2)CC1
(28) O=C(O)c1cc(-c2ccco2)nc2cc(Br)ccc12
(29) CCOc1cc(Br)c(C2C(C(=O)OC)=C(C)NC3=C2C(=O)c2ccccc23)cc1OCC (stereo unspecified)
(30) Cc1cc(C)cc(NC(=O)c2cc(S(=O)(=O)N3CCCCC3)c[nH]2)c1
screen / no. | 26 | 27 | 28 | 29 | 30
StopGo RLuc | 0.0% | 14.1% | -24.6% | 3.7% | 15.1%
2A firefly | 16.5% | -7.9% | -13.2% | -1.0% | -7.9%

(31) CN1CC(=O)N(CCCC(=O)Nc2cccc3cccnc23)C1=O
(32) Cc1ccc2nc(-c3cc(C)sc3C)cc(C(=O)O)c2c1
(33) C#CC1(O)CCN(C(C)(C)C)CC1C (stereo unspecified)
(34) COc1ccc(C(=O)NCC(c2cccnc2)N2CCc3ccccc3C2)cc1OC (stereo unspecified)
(35) Cc1cccc(C(=O)N/N=C2/CC(=O)CC(C)(C)C2)c1
screen / no. | 31 | 32 | 33 | 34 | 35
StopGo RLuc | -7.6% | ? | 2.8% | 7.3% | -7.8%
2A firefly | 9.2% | 13.3% | 2.8% | 0.0% | 15.1%

(36) COc1ccc2nc(SCC(=O)N3CCN(S(=O)(=O)c4ccc(C)cc4)C3)[nH]c2c1
(37) Cc1ccc(NS(=O)(=O)c2c(C)nc3sc(C)cn3c2=O)c(Cl)c1
(38) Cc1ccc(C(=O)COC(=O)C(Cc2c[nH]c3ccccc23)NC(=O)c2ccc(Br)cc2)cc1 (stereo unspecified)
(39) COc1ccc(C(=O)/C=C/c2ccccc2C(F)(F)F)c(OC)c1
(40) CC(OC(=O)c1nn(C)c(=O)c2ccccc12)C(N)=O (stereo unspecified)
screen / no. | 36 | 37 | 38 | 39 | 40
StopGo RLuc | 18.4% | -9.0% | -7.8% | 56.0%[activator] | -3.5%
2A firefly | -14.1% | -10.7% | -15.3% | 160.2%[activator] | 0.0%

(41) CCCCc1cc(=O)oc2cc(OCc3nn[nH]n3)ccc12
(42) Cc1cc(S(=O)(=O)NCCc2csc(-c3cccc(F)c3)n2)ccc1F
(43) CCNCC1OCCc2ccccc21 (stereo unspecified)
(44) Cc1cc(S(=O)(=O)C(CNC(=O)c2ccc(OC(C)C)cc2)c2cccs2)ccc1F (stereo unspecified)
(45) CCCC(NC(=O)Cn1c(=O)c2c(ncn2C)n(C)c1=O)c1ccccc1 (stereo unspecified)
screen / no. | 41 | 42 | 43 | 44 | 45
StopGo RLuc | 15.6% | 256.6%[activator] | -5.7% | -7.6% | -6.5%
2A firefly | 56.0%[activator] | ? | 4.9% | 27.7% | -1.7%

(46) Cc1ccc(Cn2c(=O)n(Cc3ccccc3)c(=O)c3c(C)c(C)sc32)cc1
(47) CCOC(=O)c1ccc(NC(=O)CC2CCCCC2)cc1
(48) O=C(COc1ccccc1)Nc1ccc2nc(SCC(=O)N3CCOCC3)sc2c1
(49) CCCOC(=O)c1cc(NC(=O)c2cc(Br)ccc2OC)ccc1N1CCOCC1
(50) CCCCS(=O)(=O)CCOCCS(=O)(=O)CCCC
screen / no. | 46 | 47 | 48 | 49 | 50
StopGo RLuc | -9.7% | 56.2%[activator] | -0.6% | 50.6%[activator] | 1.4%
2A firefly | -4.2% | 139.7%[activator] | -4.9% | 1.7% | 6.1%

(51) Cc1nc2ccccc2c(C)c1CC(=O)N1CCC(C(=O)N2CCCCC2)CC1
(52) COC(=O)c1n[nH]c([Si](C)(C)C)c1[Si](C)(C)C
(53) Cc1ccc(NC(=O)c2cnn(-c3ccc(C)c(C)c3)c2C2CCN(C(=O)OC(C)(C)C)CC2)c(C)c1
(54) COc1ccc(Br)c(C(=O)OCc2cc(C(C)=O)ccc2OC)c1
(55) CC(C)Sc1ncc(Cl)c(C(=O)Nc2ccc(S(=O)(=O)N(C)c3ccccc3)cc2)n1
screen / no. | 51 | 52 | 53 | 54 | 55
StopGo RLuc | -2.4% | 14.9% | 4.7% | 29.5% | 0.9%
2A firefly | 1.8% | 6.6% | 0.0% | 14.3% | -15.2%

(56) Cc1ccccc1OCCN(C)C(=O)c1cc(C2CC2)nc2ccccc12
(57) Cc1cc(C)cc(NC(=O)C(Sc2ccc(S(=O)(=O)N3CCOCC3)cn2)c2ccccc2)c1 (stereo unspecified)
(58) CC(C)C(=O)OCc1cc(=O)n2nc(C3CCCCC3)sc2n1
(59) N#Cc1nc(COc2ccccc2)oc1N1CCCCC1
(60) O=S(=O)(Nc1nc2ccccc2nc1NCc1ccccc1)c1ccccc1
screen / no. | 56 | 57 | 58 | 59 | 60
StopGo RLuc | 16.0% | 170.9%[activator] | 3.3% | 18.8% | 164.5%[activator]
2A firefly | ? | 0.0% | 10.0% | 144.2%[activator] | 19.9%

(61) CCCC1=Nc2cc(C(=O)NCc3ccccc3)ccc2Sc2ccccc21
(62) CC(=O)c1cccc(NC(=O)Cc2csc(-n3nc(C)c(Cc4ccccc4)c3C)n2)c1
(63) COc1cc(NC(=O)c2cnc(SC)nc2C(F)(F)F)cc(OC)c1
(64) CC(=O)Nc1ccccc1OCc1ccc(C)cc1
(65) CCOc1ccc(CCNC(=O)c2[nH]c3cc(OC)ccc3c2Sc2ccccc2)cc1OCC
screen / no. | 61 | 62 | 63 | 64 | 65
StopGo RLuc | -4.6% | 11.4% | 13.9% | 15.7% | 5.5%
2A firefly | -12.1% | 3.1% | 6.2% | 115.1%[activator] | -10.5%
